# Bioassay records: PubChem, Emory University Molecular Libraries Screening Center
# Measles inh: inhibitors of measles virus growth in cells, primary screen, measles RdRp inhibitor project, cell-based, single point, HTS | infected Vero cells, GFP fluorescence, 64 h; hits give low values | z-score (no concentration beside the values) | 0.1% of 33,000 active | AID 745, 2007;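 active = z-score under -3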;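 note: score is relative to mean and SD of the compound wells of a plate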
# * marks the source's active call; other numbers are inactive results. These rows are one share of the data; the hit share may differ from the screen's.
Measles inh	SMILES
-0.56	CCCOC(=O)c1ccc2c(c1)C(=O)N(c1cccc(C)c1)C2=O
0.17	CN1C(=O)c2ccccc2C(C(=O)NCCCN2CCOCC2)C1c1cccs1 (centres undefined)
-0.09	COc1ccc(C(=O)Nc2ccc(Cl)c(-c3nc4ncccc4o3)c2)cc1OC
2.6	COC(=O)c1cc2nc(-c3ccc(Br)cc3)cc(C(F)(F)F)n2n1
-1	CC1=C(C(=O)Nc2ccc(C)cc2)C(c2ccc(F)cc2)NC(=O)N1 (centres undefined)
-1.7	CC1=C(C(=O)OC2CCCCC2)C(c2cccc(F)c2)n2ncnc2N1 (centres undefined)
1	Cc1cccc2oc(-c3cccc(N=Cc4cc(Br)cc([N+](=O)[O-])c4O)c3)nc12
-0.69	CSc1c(CC(=O)NCCO)n(C)c2ccccc12
0.82	CCOC1CC2C(Cl)C1NC2(C(F)(F)F)C(F)(F)F (centres undefined)
-0.19	CCOC(=O)c1c(NC(=O)c2cccc(Oc3ccccc3)c2)sc2c1CCC2
-0.64	CN(CC(=O)Nc1ccc(Br)cc1)S(=O)(=O)c1ccc(Br)s1
0.92	O=C1CN(C(=O)c2ccc3c(c2)OCO3)C(c2ccc(F)cc2)c2cc(Br)ccc2N1 (centres undefined)

Measles inh	SMILES
-0.13	CCOc1ccc(Cc2nc3cc(C(=O)c4ccccc4)ccc3[nH]c2=O)cc1
-0.43	CC1SC(c2ccc(Br)cc2)N(c2ccccc2)C1=O (centres undefined)
-0.51	COc1cc(OC)c(C2C3=C(CCCC3=O)Nc3c2c(=O)n(C)c(=O)n3C)cc1OC (centres undefined)
-2	COc1cccc(N2CCN(C(=O)CCSCc3ccccc3F)CC2)c1
-0.45	O=C(Nc1ccc([N+](=O)[O-])cc1)c1cc(=O)c2ccccc2o1
-0.54	CC(=O)c1c(C)n2c3c(cccc13)CCC2
-0.87	COc1ccc(C2C(C(=O)Nc3ccc(Br)cc3C)c3ccccc3C(=O)N2C)cc1OC (centres undefined)
0.32	Cc1cccc(N2C(=O)C(Cl)=C(Nc3cccc(O)c3)C2=O)c1
-0.59	COc1ccc(CNc2nc(SCc3cccc([N+](=O)[O-])c3)nc3ccccc23)cc1
-0.53	Cc1ccc(NC(=O)c2cc3c(=O)n4cccc(C)c4nc3s2)c(C)c1
-0.62	O=C(CSc1nc2c(cnn2-c2ccc(Cl)cc2)c(=O)[nH]1)NCc1ccco1
1.3	COc1cc2c(cc1NCc1ccc([N+](=O)[O-])cc1)oc1ccccc12

Measles inh	SMILES
-0.16	Cc1cccc(NC(=O)c2oc3ccc(S(=O)(=O)N4CCCCC4)cc3c2C)c1C
-1.1	CCN(Cc1ccccc1)S(=O)(=O)c1cc(C(=O)Nc2ccc(Br)cc2)ccc1F
-0.36	Cc1ccc2nc(-c3ccc(Cl)cc3)c(Nc3ccc4c(c3)OCO4)n2c1
-0.23	O=C(Cn1nnc2ccccc21)C1CC1
-0.46	Cc1c(C(=O)Nc2cccc(Cl)c2)oc2ccc(S(=O)(=O)N3CCOCC3)cc12
0.35	CCOC(=O)C1=CN(C(C)C)C=C(C(=O)OCC)C1c1ccc(Br)cc1
-0.21	COc1cc2c(cc1OC)C(COc1ccccc1OC)N(C(=O)Nc1cccc(C)c1)CC2 (centres undefined)
-1.1	S=c1nc2ccccc2c2nc(COc3ccc(Cl)cc3)[nH]n12
0.29	COc1ccc(C2C(C(=O)Nc3ccccn3)CCC(=O)N2c2cc(OC)c(OC)c(OC)c2)cc1 (centres undefined)
0.72	Cc1c(C(=O)N2CCCc3ccccc32)sc2ncn(CC(=O)N3CCOCC3)c(=O)c12
-0.6	COc1ccc(Cn2c(SCC(=O)NCc3ccco3)nc3c(sc4cccc(F)c43)c2=O)cc1
3.1	COC1=NC2Nc3ccccc3N(C)C2C1c1ccc([N+](=O)[O-])cc1 (centres undefined)

Measles inh	SMILES
0.73	Cc1ccc(-c2nc3cccc(C)n3c2Nc2ccc3c(c2)OCO3)o1
-1.2	CCOc1nc(OCC)nc(N2CCC(C)CC2)n1
-0.54	O=C(CCS(=O)(=O)c1ccc(Br)s1)Nc1ccc(Cl)cc1
-0.58	COc1ccc([N+](=O)[O-])cc1NC(=O)C1c2cc(OC)c(OC)cc2C(=O)N(C)C1c1cccnc1 (centres undefined)
0.29	CCOC(=O)c1ccc(CNCc2ccc(OC)cc2)cc1
0.82	O=C(O)c1[nH]c2ccccc2c1CC(=O)N1CCCc2ccccc21
-1.1	O=C(O)c1cnn2c(C(F)(F)F)cc(-c3ccco3)nc12
1.4	Cc1cc(Br)ccc1NC(=O)CNS(=O)(=O)c1ccc(Br)s1
-0.43	CCCS(=O)(=O)N1CCCC(C(=O)N2CCCCC2)C1 (centres undefined)
0.58	COc1ccc(NC(=O)CSc2nc3c(c(=O)n2-c2ccc(C)cc2)SCC3)cc1
1.5	Cc1ccccc1CC1SC(=Nc2ccccn2)NC1=O (centres undefined)
-0.2	COc1cccc(C(=O)Nc2nc(-c3cc(C)ccc3C)cs2)c1

Measles inh	SMILES
-0.71	CCC(=O)N1CCc2cc(Br)cc(S(=O)(=O)CCC(=O)Nc3ccc(OC)cc3)c21
0.43	Cc1ccc(CS(=O)(=O)Cc2ccc(C(=O)N3CCOCC3)o2)cc1
-0.65	O=C1CSC(c2ccc([N+](=O)[O-])cc2)N1c1ccc(Br)cc1 (centres undefined)
-1.4	Fc1ccc(C2CC(c3cccc(Br)c3)n3ncnc3N2)cc1 (centres undefined)
0.62	CCOc1cc(C2Nc3ccccc3C(CC)(CC)O2)ccc1O (centres undefined)
-0.26	CCOc1ccc(C2CC(c3cccc(OC)c3OC)n3ncnc3N2)cc1Cl (centres undefined)
1.5	COC(=O)c1sc2nc3c(c(-c4cccs4)c2c1N)CCC3
-1.4	C(=NCc1ccccc1)c1cn(-c2ccccc2)nc1-c1ccccc1
-0.28	Cc1ccc(NC(=O)c2ccccc2NC(=O)c2ccccc2)cc1
0.22	O=C(CCC1CC(=O)Nc2ccccc21)NCCC1=CCCCC1 (centres undefined)
-0.28	CCC(C)NC(=O)c1ccc(CSCc2ccccc2Cl)o1 (centres undefined)
-0.23	CCOc1ccc(N2C(=O)C3ON(c4ccccc4)C(c4ccc(SC)cc4)C3C2=O)cc1 (centres undefined)

Measles inh	SMILES
1.5	CCC(C)n1c(=O)[nH]c2c(c1=O)CCC2 (centres undefined)
0.13	CCOc1ccc(C2CC(c3cccs3)Nc3ncnn32)cc1OC (centres undefined)
1.1	O=C(O)c1nn2c(C(F)(F)F)cc(-c3cccs3)nc2c1Cl
1.6	Cc1ccc(NC(=O)c2oc3ccc(S(=O)(=O)N4CCOCC4)cc3c2C)cc1C
-0.14	CCC(C)NC(=O)C1CC(=O)N(Cc2ccc(OC)cc2)C1 (centres undefined)
0.29	O=c1oc2ccc(Cl)cc2cc1-c1cn(-c2ccc(Br)cc2)c(=S)[nH]1
-1.2	CCN(CC)c1ccc(C2C(C(=O)OC(C)C)=C(C)NC3=C2C(=O)C(C(=O)OC)C(C)C3)cc1 (centres undefined)
1.9	CCOc1ccc(-n2nc(C(=O)N(C)c3ccc(Cl)cc3)c3ccccc3c2=O)cc1
0.56	CCOC(=O)C1=C(C)NC2=C(C(=O)CCC2)C1c1ccncc1 (centres undefined)
0.68	Cc1ccccc1C(=O)Nc1ccc(NC(=O)c2ccccc2C)cc1
-0.04	CCOc1ccccc1C(=O)Nc1c2c(nn1-c1ccc(C)cc1C)CSC2
0.01	COc1ccc(C(=O)Nc2nc3n(n2)C(c2ccccc2)C=C(C)N3)cc1 (centres undefined)

# Part of the list above, with each value named.
molecule: CCOc1ccc(C2CC(c3cccs3)Nc3ncnn32)cc1OC (centres undefined)
  Measles inh: 0.13

molecule: O=C(O)c1nn2c(C(F)(F)F)cc(-c3cccs3)nc2c1Cl
  Measles inh: 1.1

molecule: Cc1ccc(NC(=O)c2oc3ccc(S(=O)(=O)N4CCOCC4)cc3c2C)cc1C
  Measles inh: 1.6

molecule: CCC(C)NC(=O)C1CC(=O)N(Cc2ccc(OC)cc2)C1 (centres undefined)
  Measles inh: -0.14

# The results go on.
Measles inh	SMILES
-0.89	Cc1ccc2c(c1)C(c1ccc(F)cc1)N(C(=O)c1cccc(F)c1)CC(=O)N2 (centres undefined)
-0.55	CCC(=O)N1CCc2cc(Br)cc(S(=O)(=O)N3CCCC(C(=O)Nc4ccc(Br)cc4C)C3)c21 (centres undefined)
-1	N=c1oc2ccc3ccccc3c2cc1C(=O)Nc1cccc(C(F)(F)F)c1
-0.81	Cc1nnc(Nc2ccc(Cl)cc2)[nH]c1=O
-0.62	CCCCC(C(=O)OCCC)N1C(=O)C2C3c4ccccc4C(c4ccccc43)C2C1=O (centres undefined)
0.78	COc1ccc2cc3cc(C(=O)NCCCOC(C)C)sc3nc2c1
0.42	Cc1cc(C)cc(NC(=O)c2cnn3c(C(F)(F)F)cc(-c4ccco4)nc23)c1
-1.2	COc1cccc(C2SCC(=O)N2c2ccc(C)c(F)c2)c1OC (centres undefined)
1.9	O=C(CNC(=O)C1CCCCC1)NC1=NCCS1
-0.26	Cc1cc2nnc(SCC(=O)N(C)C)n2c2ccccc12
-0.98	CCn1c(C(C)NC(=O)c2cccc(C)c2)nc2ccccc21 (centres undefined)
-1.2	CC(C)OCCCNC(=O)c1ccc2c(=O)n(Cc3ccc4c(c3)OCO4)c(=S)[nH]c2c1

Measles inh	SMILES
0.13	Cc1ccc(-c2nc(CCl)c(C)o2)cc1
1.4	CC1CCCCC1NC(=O)c1ccc2c(=O)n(C3CCCC3)c(=S)[nH]c2c1 (centres undefined)
-0.68	C=C(C)C1CCC(C)OC1c1ccccc1 (centres undefined)
-0.57	Cc1ccc(C(=O)NCCSc2c(C)[nH]c3ccccc23)cc1C
-0.25	O=C(NC1CCSC1=O)c1cccc(C(=O)NC2CCSC2=O)c1 (centres undefined)
-0.02	CN(C)S(=O)(=O)c1ccc(C(=O)Nc2nnc(-c3ccccc3Cl)s2)cc1
0.2	CC(C)(C)c1ccc(S(=O)(=O)CCSc2nc3ccccc3s2)cc1
-0.35	CC1(C)CC(=O)C2=C(C1)Nc1[nH]n(-c3ccccc3)c(=O)c1C2c1cccs1 (centres undefined)
-0.15	COc1ccccc1N=c1oc2c(C)ncc(CO)c2cc1C(N)=O
2.2	CCCCNC(=O)NS(=O)(=O)c1nc(C)c(Cl)c(C)c1C#N
-1.6	COC(=O)C1=C(C)NC2=C(C(=O)c3ccccc32)C1c1cc(Br)c(O)c(OC)c1 (centres undefined)
-0.71	O=C1C2C3C=CC(CC3)C2C(=O)N1c1cccc(Cl)c1 (centres undefined)

# Rewritten with each value named: part of the list above.
COc1ccccc1N=c1oc2c(C)ncc(CO)c2cc1C(N)=O
- Measles inh: -0.15

CC(C)(C)c1ccc(S(=O)(=O)CCSc2nc3ccccc3s2)cc1
- Measles inh: 0.2

CC1(C)CC(=O)C2=C(C1)Nc1[nH]n(-c3ccccc3)c(=O)c1C2c1cccs1 (centres undefined)
- Measles inh: -0.35

Cc1ccc(C(=O)NCCSc2c(C)[nH]c3ccccc23)cc1C
- Measles inh: -0.57

# Back to the main list, repeating the 5 entries before the break.
Measles inh	SMILES
-0.35	CC1(C)CC(=O)C2=C(C1)Nc1[nH]n(-c3ccccc3)c(=O)c1C2c1cccs1 (centres undefined)
-0.15	COc1ccccc1N=c1oc2c(C)ncc(CO)c2cc1C(N)=O
2.2	CCCCNC(=O)NS(=O)(=O)c1nc(C)c(Cl)c(C)c1C#N
-1.6	COC(=O)C1=C(C)NC2=C(C(=O)c3ccccc32)C1c1cc(Br)c(O)c(OC)c1 (centres undefined)
-0.71	O=C1C2C3C=CC(CC3)C2C(=O)N1c1cccc(Cl)c1 (centres undefined)
2.9	COc1ccc(Oc2c(C(F)(F)F)oc3cc(O)ccc3c2=O)cc1
-0.25	CCSc1nccc(Nc2ccccc2)c1C#N
1.3	N#Cc1ccc(-n2nnc3ccccc32)cc1C#N
0.82	CCN1C(=O)CC(N2CCC(Cc3ccccc3)CC2)C1=O (centres undefined)
-0.46	O=C(NCc1ccc(Cl)cc1)c1cc(-c2cccc(Cl)c2)on1
0.41	COc1ccc(C)cc1NS(=O)(=O)c1ccc(NC(C)=O)cc1
0.36	CCCSc1nc2sc3c(c2c(=O)n1CC)CCc1ccccc1-3
-0.86	CC1CC(C)CN(C(=O)CNS(=O)(=O)c2cccs2)C1 (centres undefined)
-1.5	CC(=O)NC1(C(F)(F)F)NC(=O)N(CC(C)C)C1=O (centres undefined)
-0.29	N#CCn1cnc2sc3c(c2c1=O)CCCC3
0.9	O=C1C2C3C=CC(C3)C2C(=O)N1c1ccc(N2CCC(O)CC2)c([N+](=O)[O-])c1 (centres undefined)
-0.72	CCCOC(=O)C1=C(C)NC2=C(C(=O)CC(c3ccccc3)C2)C1c1cccnc1 (centres undefined)

Measles inh	SMILES
0.17	CCOC(=O)c1cc(-c2ccccc2)n(-c2ccc(OC)cc2)n1
1.7	CC1=CCC(C(=O)O)C(C(=O)NCc2ccc3c(c2)OCO3)C1 (centres undefined)
-0.33	O=C(CSc1nc2sc3c(c2c(=O)[nH]1)CCCC3)N1CCCC1
-0.41	Cc1ccc(Cl)cc1NS(=O)(=O)c1cc(S(=O)(=O)Nc2cc(Cl)ccc2C)c2cccc3c2c1NC3=O
-1.3	Cc1c(OCC(=O)OCC(C)C)ccc2c3c(c(=O)oc12)CCC3
-0.42	COC(=O)c1nnc(Nc2ccc(Oc3ccccc3)cc2)c2ccccc12
0.76	Cc1ccc(C(=O)CC2(O)C(=O)Nc3ccc(C)cc32)c(C)c1 (centres undefined)
-0.43	COC(=O)c1ccc(C2Nc3ccc(S(=O)(=O)Nc4ccc(C)c(C)c4)cc3C3C=CCC32)cc1 (centres undefined)
-1.6	Cc1onc(-c2ccccc2)c1C(=O)Nc1nnc(C(C)C)s1
0.66	COc1ccc(-c2cc(C(=O)Nc3cccc(Cl)c3C)no2)cc1
-0.52	CC1=C(C(=O)OCc2ccccc2)C(c2ccccc2F)C2=C(CC(c3cccs3)CC2=O)N1 (centres undefined)
1.7	Cc1ccc(CCNS(=O)(=O)c2c(C)nn(C)c2C)cc1
-1	CC(=O)N1CCc2cc(S(=O)(=O)Nc3ccc4c(c3)OCO4)ccc21
0.97	COc1cc2c(cc1NC(=O)COc1ccc3ccccc3c1)oc1ccccc12
-0.27	COc1ccc(-n2c(=S)[nH]c3cc(C(=O)NCCSCc4ccccc4)ccc3c2=O)cc1
